Assay outcomes (PubChem BioAssay)
West Nile antiviral: West Nile virus antiviral activity, cell-based, CPE readout (AID 1621); one-dose CPE inhibition, % at 10 µM; IC50 in µM for titrated hits; 290,000 tested, 0.02% active; West Nile virus-infected cells, CPE inhibition; higher % means a stronger effect; in the data active means a potency from the dose series; inconclusive means CPE inhibition mostly from about 3.7% at the one dose, without a potency; inactive means the rest, 99 in 100 with CPE inhibition below about 2.2%; further: strong numbers were not always called active
KOR beta-arrestin-1: KOR agonists, beta-arrestin recruitment, primary screen, cell-based, luminescence, uHTS (AID 1777); activation, % at 10 µM; hits with a dose series show EC50 in µM; 280,000 tested, 0.02% active; KOR beta-arrestin recruitment, luminescence; higher % means a stronger effect; Kappa-type opioid receptor (Homo sapiens); in the data active means activation above about 50%, passing the limit was not always enough; further: a part of the inactive calls stands beside numbers as strong as those of hits
HIV peptide binding: inhibitors of HIV fusion peptide binding, primary screen, biochemical, uHTS, fluorescence dequenching (AID 1986). cell-free peptide binding, fluorescence dequenching, 30 min; higher % means a stronger effect. one-dose inhibition, % at 20 µM; IC50 in µM for titrated hits. 290,000 tested, 0.3% active; in the data active means inhibition mostly above about 52%, no sharp cut-off; inactive means mostly below about 76%; further: some results filed as inactive read as strong as hits
Dengue-2 NS5 capping: Dengue-2 NS5 methyltransferase inhibitors, primary screen, biochemical, confirmation dose response (AID 588689). Genome polyprotein (Dengue virus type 2 (strain 16681-PDK53)). Dengue-2 NS5 methyltransferase capping enzyme assay, biochemical; higher % means a stronger effect. inhibition, % at 25 µM, or IC50 in µM where a hit was titrated. 340,000 tested, 0.3% active; in the data active means a potency from the dose series; inconclusive means inhibition above about 29% without an active follow-up result
KOR beta-arrestin-2: KOR antagonists, beta-arrestin recruitment, cell-based, luminescence, uHTS (AID 1778) | Kappa-type opioid receptor (Homo sapiens) | KOR beta-arrestin recruitment, luminescence, antagonist mode; higher % means a stronger effect | one-dose inhibition, % at 10 µM; IC50 in µM for titrated hits | 290,000 tested, 0.091% active; in the data active means inhibition above about 50%; further: strong numbers were not always called active
AID2073: inhibitors of Mint1-CaV2.2 protein interaction, biochemical, HTRF (AID 2073) | Voltage-dependent N-type calcium channel subunit alpha-1B (Homo sapiens) | HTRF protein-protein interaction, Mint1-CaV2.2; higher % means a stronger effect | inhibition, % at 20 µM; hits with a dose series show IC50 in µM | 290,000 tested, 0.19% active; in the data active means inhibition mostly above about 51%, no sharp cut-off; inconclusive means no clear call, values can overlap the other calls; inactive means mostly below about 53%; further: some results filed as inactive read as strong as hits
Yfh1-off respiration: enhancers of respiration in Yfh1-depleted yeast, dose response, Friedreich's ataxia, plus single-dose screen (AID 1465); S. cerevisiae Yfh1-off respiration, WST-1 reduction, 72 h; higher fold induction means a stronger effect; fold induction at 50 µM, or EC50 in µM where a hit was titrated; 220,000 tested, 0.074% active;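 active means fold induction of absorbance versus untreated yeast above a set limit, then at least 30% activation at any dose in follow-up; inconclusive means repeats straddling the limit, or above it without dose testing; inactive means fold induction below the set limit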;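 further: activators that raise dye reduction in frataxin-depleted yeast; strong numbers were not always called active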
Starred values were filed as active, the others as inactive; i = inactive; u = inconclusive; x = not tested or not shown; [ ] = remark or other dose. A portion of the library; the hit share may differ from the screen's.

SMILES | West Nile antiviral | KOR beta-arrestin-1 | HIV peptide binding | Dengue-2 NS5 capping | KOR beta-arrestin-2 | AID2073 | Yfh1-off respiration
Cc1ccc2c(c1)-c1c(cnn1CC(=O)O)CO2 | 0.2% | 1.8% | 0.8% | -2.1% | -12.1% | 7.2% | i
O=[N+]([O-])c1ccc(N/N=C/c2sc(N3CCOCC3)nc2-c2ccccc2)c(S(=O)(=O)Nc2ccccc2Cl)c1 | -0.4% | -6.7% | 14.6% | -63.7% | 4.0%[20 µM] | 30.5% | i
O=c1c(Cl)c(Cl)cnn1Cc1nnc(-c2ccccc2Br)o1 | -1.8% | 1.8% | -0.3% | -19.1% | -44.3% | 28.8% | i
COCCn1c(=S)[nH]c2cc(C(=O)N3CCCC(C)C3)ccc2c1=O (configuration not stated) | -0.5% | -2.2% | -0.5% | -7.0% | -7.3% | -28.1% | x
c1ccc2c(c1)ncn2-c1ccc(-c2ccnc(-c3ccncc3)n2)cc1 | x | -1.4% | 36.6% | -1.2% | 3.2% | 2.6% | x
O=C(N/N=C/c1ccccc1O)c1cccc2ccccc12 | u | 4.8% | 1.7% | -4.1% | -69.0%[20 µM] | 3.7% | x
CC(=O)NC(c1ccco1)c1ccc2cccnc2c1O (configuration not stated) | u | 5.0% | -0.7% | 4.3% | 23.2% | -4.1% | i
Cc1nn(-c2ccccc2)c(Cl)c1C(=O)N1CCN(c2ncnc3c2cnn3-c2ccccc2)CC1 | 1.3% | 6.2% | 3.9% | -4.2% | -64.1% | 11.7% | i
Cc1ncoc1C(=O)NC1CCCc2c1cnn2-c1ccc(C(C)(C)C)cc1 (configuration not stated) | -1.0% | -1.8% | -0.2% | 0.7% | 10.2% | 11.8% | x
Cc1ccc(C)c(S(=O)(=O)/N=C2\C=C(NS(=O)(=O)c3ccccc3)C(=O)c3ccccc32)c1 | -0.6% | 2.9% | 12.9µM* | 97.8µM* | -50.6% | 16.0% | x
COc1ccc(CCNC(=S)N2CCC(Cc3ccccc3)CC2)cc1OC | -1.5% | 0.3% | -0.1% | -5.3% | 7.4% | -16.6% | u
COc1ccc2cc3c(N)nn(C(=O)c4cccc([N+](=O)[O-])c4)c3nc2c1 | -0.3% | -3.7% | -4.4% | -5.7% | -19.1% | 12.2µM* | i
N=c1n(CCN2CCOCC2)c2ccccc2n1CC(=O)c1ccc(Cl)c(Cl)c1 | -0.3% | x | -3.7% | -6.5% | x | 5.7% | i
O=c1c2cc(Cl)ccc2nc(-c2ccc(Cl)c(Cl)c2)n1O | 0.4% | -6.4% | 29.9% | -3.1% | 78.9% | 6.6% | i
O=C(Nc1ccc(N2CCN(C(=O)c3ccccc3)CC2)c(Cl)c1)c1ccc(Br)o1 | 2.3% | 18.4% | -1.1% | 0.0% | -6.4% | 9.8% | i
O=C(Nc1nc(-c2cccs2)cs1)c1ccc(S(=O)(=O)N2CCCC2)cc1 | -0.1% | -5.0% | -1.6% | 0.0% | 7.2% | 13.6% | i
O=C(N/N=C/c1ccc([N+](=O)[O-])o1)c1ccc2c(c1)OCO2 | -1.3% | -8.3% | 28.3% | 0.0% | 1.6% | 18.6% | x
COc1cc(C2NC(=O)NC(c3ccccc3)=C2C(C)=O)ccc1OCC#N (configuration not stated) | x | -4.5% | -0.3% | 0.7% | 1.7% | -0.5% | i
Oc1ccc(/C=N/Nc2nc(-c3ccccc3F)nc3ccccc23)c(O)c1 | 1.1% | 1.0% | 3.3% | -11.5% | -67.7% | 19.3% | i
O=C(Nc1nc(-c2ccccc2)cs1)c1ccccc1NS(=O)(=O)c1ccc(F)cc1 | 2.0% | 111.2%* | 71.5%* | 15.3% | -251.7% | 15.0% | i
CC1=Nc2ccccc2/C1=C/c1sc(=N)n(-c2nccs2)c1O | 1.2% | 1.2% | 4.3% | -39.2% | 6.76µM* | 1.0% | i
N/C(=N\c1nc2c(c(=O)[nH]1)CCC2)Nc1cccc2ccccc12 | -0.4% | 1.3% | 14.2% | 0.0% | 2.0% | 0.7% | i
CCN1/C(=C\c2ccc3cc(C)ccc3[n+]2CC)Sc2cc(C)c(C)cc21 | 1.8% | 6.3% | 6.7% | -77.5% | 4.2% | 12.6% | i
COc1ccc2c(c1)c(C(C)=O)c(C)n2-c1ccc(C(C)=O)cc1 | 0.3% | 2.2% | 2.5% | -1.3% | 2.0% | 23.8% | x
O=C1CC(c2ccc(F)cc2)Cc2nc(NCC3CCCO3)ncc21 (configuration not stated) | 0.5% | -2.2% | -0.1% | -4.3% | 8.9% | 6.5% | i
CCOC(=O)C=C1CCN(c2ncc(C(F)(F)F)cc2Cl)CC1 | 0.7% | -2.8% | 0.6% | 0.0% | -5.6% | 9.3% | i
O=C(NC(NC(=S)Nc1ccccc1Cl)C(Cl)(Cl)Cl)c1cccc(Cl)c1 (configuration not stated) | 1.4% | -2.6% | 6.2% | -7.1% | 16.3% | 4.9% | i
N#C/C(=C\C=C\c1ccccc1[N+](=O)[O-])C(=O)NC1CCCCC1 | u | 1.8% | -1.9% | 3.8% | -16.0% | -6.0% | i
Cc1ccnc(NC(=O)Cc2ccc(-c3ccccc3)cc2)c1 | -0.1% | 0.7% | 6.9% | 0.7% | 8.0% | 14.5% | x
Brc1ccc2ncnc(Nc3ccc(N4CCOCC4)cc3)c2c1 | 0.8% | 3.2% | -0.3% | -1.4% | -21.3% | 10.7% | i
O=C(Nc1nc(-c2ccccc2)cs1)c1ccc2c(=O)n3c(nc2c1)CCCCC3 | 0.1% | -2.4% | 4.6% | 0.9% | -41.8% | 16.5% | i
CN1CCCC1CCNC1C2CC3CC(C2)CC1C3 (configuration not stated) | x | -2.2% | 0.4% | 2.7% | 31.6% | -3.1% | x
Cc1ccc(NCCC(=O)c2ccc(Cl)c(Cl)c2)cc1 | 0.1% | 5.6% | -1.4% | -2.7% | -37.2% | 3.2% | i
Cc1ccc(NC(=O)CSc2nn(-c3ccccc3)c(=S)s2)cc1S(=O)(=O)N(C)C | -1.8% | -0.6% | 4.5% | -3.6% | x | 4.5% | i
COc1ccc(-c2cc3nc(C)n(N)c(=O)c3s2)cc1 | -0.4% | -0.3% | -1.4% | -1.5% | 12.1% | 13.9% | i
Cc1cccc2cc(/C=N/NC(=O)c3ccccc3O)c(Cl)nc12 | -0.9% | 1.9% | 8.1% | 2.9% | 12.1% | 11.9% | i
COc1cccc(CNc2ncnc3cc(Cl)ccc23)c1 | -1.7% | -1.2% | 0.5% | -12.7% | -24.4%[20 µM] | -1.0% | i
COc1ccc(C)cc1NC(=O)c1ccccc1NS(=O)(=O)c1ccc(Cl)s1 | -1.5% | 1.3% | 60.5%* | 49.3µM* | -121.9%[20 µM] | 3.1% | i
Cc1ccc(Cc2c(C)c(C#N)c3[nH]c4ccccc4n3c2=O)cc1 | -0.9% | 1.6% | -1.7% | -5.3% | -57.1% | 10.0% | i
CC(C)C1Nc2c(O)cc(Cl)c([N+](=O)[O-])c2C2C=CCC21 (configuration not stated) | -1.4% | x | 46.3% | 68.9µM* | -32.0%[20 µM] | -7.7% | i
COc1ccc(S(=O)(=O)N(C)CC(=O)NCc2ccco2)cc1 | -0.3% | 4.9% | 0.2% | -5.8% | -24.5% | -1.0% | i
O=c1c2c(nc3c(-c4ccc(Cl)cc4)c[nH]n13)CCC2 | -1.1% | -9.2% | 9.2% | 5.1% | 22.1% | 39.7% | i
Oc1c(I)cc(Cl)c2cccnc12 | x | -5.3% | 2.2% | -4.5% | 5.79µM* | -1.1% | x
Cc1ccc(C(=O)Sc2cccccc2=O)cc1 | 14.7% | 0.4% | 4.1% | 8.5% | 88.3%* | -33.6% | x
O=C(CSc1nnnn1C1CC2CCC1C2)Nc1ccnc2ccccc12 (configuration not stated) | x | -3.1% | -3.1% | x | 3.5% | 1.7% | x
COc1ccc2c(c1)-c1c(ssc1=S)C(C)(C)N2 | 0.2% | 0.2% | -2.5% | 6.9% | -27.7% | -21.9% | i
CC1=C(C(=O)OCc2ccc3c(c2)OCO3)C(c2ccc(Cl)cc2)NC(=O)N1 (configuration not stated) | 1.1% | 3.7% | -2.5% | 0.0% | -43.4% | -2.4% | i
NC(=S)n1[nH]c(-c2ccc([N+](=O)[O-])cc2)c(N=Nc2cccc([N+](=O)[O-])c2)c1=O | -1.2% | -3.6% | 52.5% | 14.6% | -13.5% | 4µM* | 44.1µM*
COc1cc(/C=C/c2ccc3cccc(O)c3n2)ccc1O | 1.7% | 2.3% | -1.2% | -14.4% | 11.9µM* | 21.1% | x
O=C(CCl)N1N=C(c2ccco2)CC1c1ccco1 (configuration not stated) | -1.5% | -0.8% | 14.5% | -9.5% | 0.6% | 26.9% | x
Cc1ccc(S(=O)(=O)Nc2cccc3cccnc23)c([N+](=O)[O-])c1 | 12.4% | -1.4% | -0.2% | -9.4% | 5.55µM* | 11.3% | x
O=S(=O)(/C(=C/c1ccc(C(F)(F)F)cc1)c1nc2ccccc2[nH]1)c1ccccc1 | -2.0% | -1.3% | 2.3% | -22.7% | 37.8% | -8.2% | i
Cc1nn(C(C)(C)C)c(C)c1/C=N/OC(=O)Nc1ccc(Cl)c(Cl)c1 | -0.3% | -5.0% | -1.7% | -3.8% | -4.1% | 23.2% | i
O=C(NC1CCCCC1)C(c1cccnc1)N(C(=O)CCl)c1ccccc1Cl (configuration not stated) | -1.0% | 4.8% | 0.7% | 4.0% | 3.7% | 10.4% | i
CN1C(=O)/C(=C/c2cc(N=Nc3ccccc3)ccc2O)SC1=S | -1.4% | -4.5% | 0.7% | 1.4% | -45.0% | 18.8% | i
O=[N+]([O-])c1ccc(O)c(/C=N/Nc2ccccc2[N+](=O)[O-])c1 | -0.6% | -1.0% | -4.1% | -3.3% | 0.4% | 35.1% | x
O=C(Nc1nnc(-c2cccs2)o1)c1cccc(C(F)(F)F)c1 | 0.0% | -9.7% | 2.4% | -5.5% | 100.5%* | 2.2% | i
Cc1cc(/C=N/n2cnnc2)c(C)n1-c1ccc(OCc2ccc(Cl)cc2Cl)cc1 | u | 1.5% | -1.7% | 0.7% | -41.8% | 12.0% | i
O=C(CCCN1C(=O)/C(=C/c2ccccc2Cl)SC1=S)NNC(=O)c1ccncc1 | 0.1% | -0.5% | -0.7% | 2.3% | 12.8% | -4.2% | i
O=C(Nc1ccccc1C(=O)Nc1nnc(C(F)(F)F)s1)c1ccccc1 | u | -3.1% | 42.1% | -0.8% | -54.6% | 22.5% | i

Fetched one by one from the entries so far, six records:
SMILES | West Nile antiviral | KOR beta-arrestin-1 | HIV peptide binding | Dengue-2 NS5 capping | KOR beta-arrestin-2 | AID2073 | Yfh1-off respiration
O=C(Nc1nnc(-c2cccs2)o1)c1cccc(C(F)(F)F)c1 | 0.0% | -9.7% | 2.4% | -5.5% | 100.5%* | 2.2% | i
O=S(=O)(/C(=C/c1ccc(C(F)(F)F)cc1)c1nc2ccccc2[nH]1)c1ccccc1 | -2.0% | -1.3% | 2.3% | -22.7% | 37.8% | -8.2% | i
O=C(CCl)N1N=C(c2ccco2)CC1c1ccco1 (configuration not stated) | -1.5% | -0.8% | 14.5% | -9.5% | 0.6% | 26.9% | x
Cc1ccc(S(=O)(=O)Nc2cccc3cccnc23)c([N+](=O)[O-])c1 | 12.4% | -1.4% | -0.2% | -9.4% | 5.55µM* | 11.3% | x
Cc1cc(/C=N/n2cnnc2)c(C)n1-c1ccc(OCc2ccc(Cl)cc2Cl)cc1 | u | 1.5% | -1.7% | 0.7% | -41.8% | 12.0% | i
O=C(NC1CCCCC1)C(c1cccnc1)N(C(=O)CCl)c1ccccc1Cl (configuration not stated) | -1.0% | 4.8% | 0.7% | 4.0% | 3.7% | 10.4% | i
